AID504770 = growth inhibitors of E. coli YBA685 in a screen for V. cholerae RctB (chromosome II replication) inhibitors. E. coli YBA685 rctB-dependent plasmid, OD600 growth, 3 h; stronger effect = lower value. z-score (no concentration beside the values). 130,000 compounds, 0.27% hits;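 active = z-score under -2 on both plates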;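 note: wells of about 30 µL received 100 nL stock; score is relative to mean and SD of the test wells; the first replicate is given; strong numbers were not always called active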
Ba CapD inh = CapD enzyme inhibition | purified CapD enzyme, fluorescence intensity read-out; stronger effect = lower value; some hits fall short of the stated cut | z-score (concentration not given with the values) | 140,000 compounds, 0.23% hits;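 active = z-score under -4 in either of two replicates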;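 note: stock transfer was 100 nL into about 40 µL; score is relative to mean and spread of the plate; one replicate is shown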
The depositor's hits bear a star. Not all compounds are listed; count on the stated rates, not on these rows.

The first two records, ahead of the listing:
What do the screens show for `Cc1cc2nc(N3CCN(c4ccccc4)CC3)c3ccccc3n2n1`?
AID504770: -1.1

How did O=C(CC1Sc2ccccc2NC1=O)Nc1cccc(-c2nnc3n2CCCCC3)c1 (centres undefined) do in these assays?
AID504770: -0.9

The listing, previewed entries included:
What do the screens show for `Cc1cc2nc(N3CCN(c4ccccc4)CC3)c3ccccc3n2n1`?
AID504770: -1.1

How did O=C(CC1Sc2ccccc2NC1=O)Nc1cccc(-c2nnc3n2CCCCC3)c1 (centres undefined) do in these assays?
AID504770: -0.9

How did O=C(CNS(=O)(=O)c1ccccc1)NCc1ccccn1 do in these assays?
AID504770: 0.2

How did Cc1ccc(-n2cnc3scc(-c4cccs4)c3c2=O)cc1 do in these assays?
AID504770: 0.45; Ba CapD inh: 0.52

What do the screens show for `CC(OCc1ccccc1)C(NS(=O)(=O)c1ccc(Oc2cccc(Cl)c2C#N)cc1)C(N)=O` (centres undefined)?
Ba CapD inh: -0.52

What do the screens show for `CCCCN1C(=O)NC2NC(=O)NC21` (centres undefined)?
AID504770: -0.55; Ba CapD inh: -0.08

What do the screens show for `O=C(OCC(=O)N1CCCC1)c1ccc2ncsc2c1`?
AID504770: 0.1

What do the screens show for `N#Cc1c(Cl)cccc1Oc1ccc(S(=O)(=O)N2CCN(c3ccc(Cl)cc3)CC2)cc1`?
Ba CapD inh: 0.56

Results for COc1ccc(OC)c(C2C(C(=O)Nc3ccc(F)cc3)=C(C)NC3=C2C(=O)CC(c2ccccc2)C3)c1 (centres undefined) ?
Ba CapD inh: 15

How did O=C(c1cccs1)N(Cc1ccccc1)c1ccccn1 do in these assays?
AID504770: -1.3; Ba CapD inh: -0.035

Results for O=C(CCc1ccccc1)OCCN1CCCC1=O ?
AID504770: 1.6

What do the screens show for `CC(=O)N1CCc2cccc(NC(=O)C3CC3)c21`?
Ba CapD inh: -0.67

How did Nc1nc2c(-c3ccc(Cl)cc3)nnn2c2cc(C(F)(F)F)cnc12 do in these assays?
Ba CapD inh: 0.87

What do the screens show for `COc1ccc(COC(=O)N/N=C/c2ccco2)cc1`?
AID504770: 1.4

How did O=C(C1CCCN(S(=O)(=O)c2cccc3nonc23)C1)N1CCc2ccccc2C1 (centres undefined) do in these assays?
AID504770: 0.95; Ba CapD inh: -0.53

Results for C=CCn1c(SCC(=O)O)nnc1-c1ccc(OC)c(OC)c1 ?
AID504770: 0.15; Ba CapD inh: -0.61

Results for CSc1ccc(Cl)c(C(=O)N2CCc3ccccc32)c1 ?
AID504770: -0.15; Ba CapD inh: 0.67

What do the screens show for `O=C(CSc1ncccn1)N1CCN(S(=O)(=O)c2ccc(Cl)cc2)CC1`?
AID504770: 0.6

What do the screens show for `CC(C)C1=CC23CCC4C(C)(C(=O)O)CCCC4(C)C2CC1C1C(=O)N(c2ccc(S(N)(=O)=O)cc2)C(=O)C13` (centres undefined)?
Ba CapD inh: 0.6

How did Cc1c(C(=O)N2CCCC2)oc2c1-c1nn(CC(=O)O)cc1CC2 do in these assays?
AID504770: -0.55; Ba CapD inh: 3.3

How did O=C(c1ccc(N2CC3CC(C2)c2cccc(=O)n2C3)c(NS(=O)(=O)c2ccc(Cl)cc2)c1)N1CCCCCC1 (centres undefined) do in these assays?
Ba CapD inh: -0.47

How did CCc1ccc(OCCCC(N)=O)cc1 do in these assays?
AID504770: 0.45; Ba CapD inh: 1.1

What do the screens show for `O=CN1CCN(C(=S)Nc2ccc(Cl)cc2Cl)CC1`?
AID504770: 0.45

How did COc1cccc(-c2cc(C(F)(F)F)nc(N3CCCCC3)n2)c1 do in these assays?
AID504770: 1.2; Ba CapD inh: 0.69

How did O=C1C(=O)N(c2ccccc2)C(c2ccccc2)/C1=C(\O)c1ccccc1 (centres undefined) do in these assays?
Ba CapD inh: -1.2

What do the screens show for `Cc1cc(NC(=O)c2ccc(C(=O)c3ccccc3)cc2)no1`?
AID504770: 1.5; Ba CapD inh: -0.14

How did Cn1c(=O)c(C(=O)NCCN2CCNCC2)c(O)c2ccccc21 do in these assays?
AID504770: -0.8

Results for CC1=CCC2CC1C(c1ccc(N(C)C)cc1)OC2(C)C (centres undefined) ?
AID504770: -0.1; Ba CapD inh: 0.52

What do the screens show for `CC(C)CCNC(=O)C1(C)CCC(=O)N1Cc1cccs1` (centres undefined)?
AID504770: -1; Ba CapD inh: 0.23

What do the screens show for `CN(C(=O)c1cc2ccc3cccnc3c2[nH]1)c1ccccc1`?
AID504770: 0; Ba CapD inh: 0.16

Results for CC1CCCC(C)N1C(=O)COC(=O)c1ccc2ccccc2n1 (centres undefined) ?
AID504770: 0.65; Ba CapD inh: 0.13

How did O=c1oc2ccc(Br)cc2cc1-c1cn2ccccc2n1 do in these assays?
AID504770: 0; Ba CapD inh: -0.075

How did Cc1nnc(SC(C)C(=O)C23CC4CC(CC(C4)C2)C3)n1C (centres undefined) do in these assays?
AID504770: 0.45

What do the screens show for `O=C(O)COc1cccc(C(F)(F)F)c1`?
AID504770: 0.35; Ba CapD inh: 0.96

Results for O=C(/C(=N\O)n1cncn1)c1ccccc1Cl ?
AID504770: 0.25; Ba CapD inh: -0.23

Results for COc1ccc(OC)c(CNn2c(-c3ccc(Br)cc3)nc3ccccc3c2=O)c1 ?
Ba CapD inh: -0.085

What do the screens show for `CSc1ccc(CNC(=O)c2c(C)noc2C)s1`?
AID504770: 1.6; Ba CapD inh: -1

Results for Cc1cc2ncn(S(=O)(=O)c3ccc(S(=O)(=O)NCC4CCCO4)cc3)c2cc1C (centres undefined) ?
AID504770: 0.25

How did Cc1cc(C)c2c(n1)SCC(=O)N2CCCC(=O)NC(C)C do in these assays?
AID504770: -0.8; Ba CapD inh: 0.065

Results for Cc1ccc(S(=O)(=O)NC(=O)OCC2CN(Cc3ccccc3)CCO2)cc1 (centres undefined) ?
AID504770: 0.65; Ba CapD inh: 0.91

How did Cc1cccc(-n2ncc3c(N(C)Cc4ccccc4)ncnc32)c1 do in these assays?
AID504770: 0.2; Ba CapD inh: -0.11

Results for NC(N)=NC(N)=Nc1ccc2ccccc2c1 ?
AID504770: -0.4; Ba CapD inh: 1.5

Results for CCC(NC(=O)Nc1cc(C)cc(C)c1)c1c(-n2cccc2)sc2c1CCN(CC)C2 (centres undefined) ?
AID504770: -0.35; Ba CapD inh: -1

Results for O=C(O)c1cccc(S(=O)(=O)N2c3cccc4cccc(c34)S2(=O)=O)c1 ?
AID504770: -0.7

What do the screens show for `Brc1ccc(-c2cnc3ccccc3n2)cc1`?
Ba CapD inh: 0.23

An excerpt from above in order of length of the SMILES, ascending:
Results for O=C(CCc1ccccc1)OCCN1CCCC1=O ?
AID504770: 1.6

What do the screens show for `CSc1ccc(CNC(=O)c2c(C)noc2C)s1`?
AID504770: 1.6; Ba CapD inh: -1

What do the screens show for `O=C(CSc1ncccn1)N1CCN(S(=O)(=O)c2ccc(Cl)cc2)CC1`?
AID504770: 0.6

What do the screens show for `N#Cc1c(Cl)cccc1Oc1ccc(S(=O)(=O)N2CCN(c3ccc(Cl)cc3)CC2)cc1`?
Ba CapD inh: 0.56

(next part)
What do the screens show for `CC1(C)CC(=O)C=C(N2CCN(c3ccccc3F)CC2)C1`?
AID504770: -0.55

Results for O=C(OCc1cc(=O)n2ccsc2n1)c1cc(-c2cccs2)nn1-c1ccccc1 ?
AID504770: 0.65

Results for CS(=O)(=O)/C(C#N)=C/c1cccn1-c1ccc(C(F)(F)F)cc1 ?
AID504770: -1.4; Ba CapD inh: -1.5

How did CCCc1cc(=O)[nH]c(SCCSC)n1 do in these assays?
AID504770: 0.2

Results for CCN(CC(=O)NC1CCS(=O)(=O)C1)S(=O)(=O)c1ccccc1 (centres undefined) ?
AID504770: -0.75

How did Cc1cc(=O)oc2cc(OCC3CC(c4ccccc4)=NO3)ccc12 (centres undefined) do in these assays?
AID504770: 1; Ba CapD inh: 36

How did O=[N+]([O-])c1cc(Cc2cc([N+](=O)[O-])cc(C(F)(F)F)c2)cc(C(F)(F)F)c1 do in these assays?
Ba CapD inh: 0.53

What do the screens show for `CCn1c(C=Nc2ccccc2)nc2ccccc21`?
AID504770: -0.1; Ba CapD inh: 0.53

Results for COCCCNc1oc(-c2ccccc2Cl)nc1C#N ?
AID504770: -1.1; Ba CapD inh: 79

What do the screens show for `CCOc1ccc(CN(C)C(=O)c2ccc3ccccc3n2)cc1`?
AID504770: -0.35

Results for C=CCC1(O)CC(c2ccccc2)NC(c2ccccc2)C1CC (centres undefined) ?
AID504770: -0.25; Ba CapD inh: 0.15

How did O=[N+]([O-])c1ccc(Cl)c(N=Cc2nc(-c3ccccc3Br)oc2O)c1 do in these assays?
Ba CapD inh: -0.015

How did NCC(O)c1ccc2ccccc2c1 (centres undefined) do in these assays?
AID504770: -0.2; Ba CapD inh: 0.16

Results for C=C(C)COc1c(Cl)cc(C#N)cc1OC ?
AID504770: 1; Ba CapD inh: -0.02

How did Cc1cccc(-n2c(C)cc(CNC(=O)NC(C)C)c2C)c1 do in these assays?
AID504770: 0.3; Ba CapD inh: 0.73

2 entries drawn at random from those above:
Results for COCCCNc1oc(-c2ccccc2Cl)nc1C#N ?
AID504770: -1.1; Ba CapD inh: 79

Results for C=C(C)COc1c(Cl)cc(C#N)cc1OC ?
AID504770: 1; Ba CapD inh: -0.02

New compounds follow.
What do the screens show for `Clc1ccc(CSC2=NCCCN2)cc1Cl`?
AID504770: 1.1; Ba CapD inh: -0.93

What do the screens show for `COc1ccc(/C=N/n2cnnc2SC)cc1OC`?
AID504770: 0.35; Ba CapD inh: 2.9

What do the screens show for `O=C(c1ccccc1O)N1N=C(c2ccncc2)CC1(O)C(F)(F)F` (centres undefined)?
Ba CapD inh: -0.3

How did O=C(COC(=O)c1ccc(F)cc1)NCc1ccc(F)cc1 do in these assays?
AID504770: 1; Ba CapD inh: -0.93

How did COc1ccc(CC(=O)NNC(=O)c2ccc(C)cc2)c(OC)c1 do in these assays?
Ba CapD inh: -0.34

What do the screens show for `CCSc1nn2cc(-c3ccccc3Cl)nc2s1`?
AID504770: 0.25

Results for CCc1ccc(NC(=O)CNS(=O)(=O)c2cccc3nonc23)cc1 ?
AID504770: -1.2; Ba CapD inh: -1

How did Cc1cc(C)n(-c2cc(C(=O)O)ccc2C)n1 do in these assays?
AID504770: 1.6

Results for OCC(O)/C=N/Nc1nc(Nc2ccccc2)nc(N2CCCCC2)n1 (centres undefined) ?
AID504770: 0; Ba CapD inh: 0.33

Results for CC(C)c1ccc(NC(=O)CSc2ncc3c(n2)CC(C)(C)CC3=O)cc1 ?
AID504770: -0.5; Ba CapD inh: -0.46

What do the screens show for `CCCCC#CCCOC(=O)NNC(=O)Cc1ccc(OC)cc1OC`?
Ba CapD inh: 0.2

Results for Cc1nn(C2CCS(=O)(=O)C2)c2ncc(C(=O)c3cc(F)ccc3O)cc12 (centres undefined) ?
AID504770: 1.9

How did CCN(CC)S(=O)(=O)c1ccc2c(c1)C(=O)c1cc(S(=O)(=O)N(CC)CC)ccc1-2 do in these assays?
AID504770: 0.3; Ba CapD inh: -0.15

How did CC1(C)c2ccccc2N2CC(=O)NC21/C=C/c1ccc(F)cc1 (centres undefined) do in these assays?
AID504770: 0.25; Ba CapD inh: 0.92

How did O=C(CSc1nc2ccccc2[nH]1)N/N=C/c1ccccc1O do in these assays?
AID504770: -0.15; Ba CapD inh: -0.27

Results for OC1COC(NCCc2ccccc2)C(O)C1O (centres undefined) ?
AID504770: 0.1; Ba CapD inh: 12

How did COc1ccc(-c2nnc(NC(=O)c3ccc(C(=O)c4ccccc4)cc3)s2)c(OC)c1 do in these assays?
Ba CapD inh: 2.1

How did S=c1[nH]nc(-c2ccncc2)o1 do in these assays?
AID504770: -0.45; Ba CapD inh: -0.42

How did CC(C)c1nc2nc(N)nc(N)c2nc1C(C)C do in these assays?
AID504770: -1.4; Ba CapD inh: 45

How did COc1ccccc1-n1cnc2cc(C(=O)NC3CCCC3)ccc21 do in these assays?
AID504770: 0.15; Ba CapD inh: -0.54

What do the screens show for `N#CC1(C#N)[C@H](c2ccccc2F)[C@@H](C(=O)c2ccccc2)N2c3ccc4ccccc4c3C=C[C@@H]21`?
Ba CapD inh: 4.6

Results for NCCSC(=S)NC1CCCCCCC1 ?
AID504770: 0.55; Ba CapD inh: 0.39

How did O=C(NCc1ccccc1)N1CCSc2ccccc21 do in these assays?
AID504770: 0; Ba CapD inh: 1.2

What do the screens show for `NS(=O)(=O)c1ccc(CCNCc2ccc3c(c2)OCO3)cc1`?
AID504770: -0.5

Results for Cc1ccc(NC(=O)c2cc(C(C)C)[nH]n2)cc1 ?
AID504770: -0.25; Ba CapD inh: 0.26

Results for Cn1cnnc1SCC(=O)Nc1ccc(Br)c2cccnc12 ?
Ba CapD inh: 0.27

Results for O=C1N/C(=N/S(=O)(=O)c2ccccc2)S/C1=C/c1ccccc1O ?
AID504770: 1.6; Ba CapD inh: 1.3

Results for O=c1oc(-c2cccs2)nc2sc3c(c12)CCCC3 ?
AID504770: -0.25; Ba CapD inh: 0.17

What do the screens show for `CCCSc1nsc(NC(=O)CN2C(=O)COc3ccccc32)n1`?
AID504770: 1.4

What do the screens show for `CC(C)CCNS(=O)(=O)c1ccc(-c2ccc(S(=O)(=O)NCCC(C)C)cc2)cc1`?
AID504770: 0.15; Ba CapD inh: 0.4

How did Cc1c(NC(=O)NCc2cccnc2)sc2nc3n(c(=O)c12)CCC(C)CC3 (centres undefined) do in these assays?
AID504770: -0.85; Ba CapD inh: 1

What do the screens show for `O=C(COC(=O)C1CC2C=CC1C2)Nc1ccccc1` (centres undefined)?
AID504770: -0.4; Ba CapD inh: -0.49

How did O=C(Nc1ccccc1C(=O)N/N=C/c1ccc2c(c1)OCO2)c1cccs1 do in these assays?
Ba CapD inh: 12
